GLA inh pH 4.5 = blocks human alpha-galactosidase A at pH 4.5; activity change, negative = inhibition, % at 105 µM; purified enzyme, 4-MU-alpha-Gal fluorescence, pH 4.5; 230,000 tested, under 10 active; P06280; inconclusive = small, poorly fitted or top-dose-only inhibition, or a rising curve; inactive = flat fitted curve, though single readings scatter; no compound was filed as active;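 note: 0% = full activity with enzyme and -100% = basal without enzyme; dose as in the result columns while the protocol names 77 µM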
Target sequence (P06280 whole entry, looked up): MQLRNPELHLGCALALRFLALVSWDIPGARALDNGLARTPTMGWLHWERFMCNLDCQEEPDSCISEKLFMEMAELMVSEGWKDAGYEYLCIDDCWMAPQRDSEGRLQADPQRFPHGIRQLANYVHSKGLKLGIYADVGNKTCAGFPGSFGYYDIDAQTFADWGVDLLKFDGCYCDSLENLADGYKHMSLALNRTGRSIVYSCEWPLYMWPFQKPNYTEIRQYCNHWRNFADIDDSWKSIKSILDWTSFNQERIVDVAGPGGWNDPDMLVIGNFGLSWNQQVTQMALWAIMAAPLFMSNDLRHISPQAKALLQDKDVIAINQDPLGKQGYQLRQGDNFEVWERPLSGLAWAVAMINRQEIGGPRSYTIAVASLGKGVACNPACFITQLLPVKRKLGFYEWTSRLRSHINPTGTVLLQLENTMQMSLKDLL
Rango-impB inh = prevents formation of the Rango-importin beta complex. hit rate 0.031% among 340,000. Q14974. Potency, µM (titrated, usually from 92.2 µM), for inactives: at the highest dose inhibition of complex formation. Rango CFP/YFP FRET sensor + importin beta, 45 min; active = rising FRET ratio curve, often small or poorly fitted; inconclusive = mostly compound fluorescence or quenching in the first reads; inactive = flat curves in all reads;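 note: potency is the fitted concentration of half-maximal effect; 0% = DMSO wells and 100% = buffer wells lacking importin beta; nearly all actives have a fitted effect of over 15% in size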
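FRET biosensor (snurportin 1 IBB flanked by EYFP and cerulean), 50 nM, with compound 5 min, then 0.125 microM importin beta in PBS, 1 mM DTT, 0.02% Tween-20, 0.1% BSA. CFP/YFP ratio read after 45 min at room temperature; pre-read flags interference.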
Rango release inh = prevents RanGTP from dissociating the Rango-importin beta complex. O95149+P62826. Biochemical FRET Rango-importin beta, RanGTP-induced dissociation. AID 540253. Potency, µM (doses to about 46.1 µM), for inactives: top-dose activity change, negative = inhibition. hit rate 0.071% among 340,000; active means falling FRET ratio curve, often poorly fitted, with flat reads before Ran was added; inconclusive means other falling curves, or compound fluorescence or quenching; inactive means flat or rising ratio curve;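 note: potency is the fitted concentration of half-maximal effect; % of control where 0% means no effect; nearly all actives have a fitted effect of over 45% in size; -100% = wells without RanGTP and RCC1; the record marks most hits as doubtful in a second field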
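Compounds preincubate 5 min with complex of recombinant Rango and importin beta in PBS with 1 mM DTT. Ran (0.6 uM) loaded with 2 mM GTP plus 0.2 uM RCC1 starts dissociation; FRET is recorded 45 min later.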
miR-21 reporter = miR-21 reporter, rising signal; HeLa miR-21 FLuc reporter, luciferase, 48 h; Potency, µM (titrated, usually from 38.3 µM), without a hit: at the top dose reporter change, positive = more light; 340,000 tested, under 10 active; active = well fitted rising curve with a large enough effect; inconclusive = small, poorly fitted or top-dose-only effect; inactive = no such curve, though single readings can be large or run the other way;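 note: % of control where 0% means no effect; miR-21 action dims this reporter so a rising signal means less miR-21 action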
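Using DMEM plus 10% FBS, HeLa miR-21-FLuc cells are incubated with test compounds (final up to about 40uM) for 48 hours; firefly luciferase signal is then imaged following reagent-mediated lysis.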
The depositor's hits bear a star; ? = inconclusive; / = no result given.

| # | mol | GLA inh pH 4.5 | Rango-impB inh | Rango release inh | miR-21 reporter |
| --- | --- | --- | --- | --- | --- |
| 1 | COC(=O)c1ccc(OC)c(CSc2nnc(COc3ccc(OC)cc3)o2)c1 | -12 | 2.3% | -18% | -1% |
| 2 | COc1ccc(N2CCN(C(=O)c3ccc(Br)cc3)CC2)c([N+](=O)[O-])c1 | -9 | -0.4% | 6% | 0% |
| 3 | CC(=O)c1cccc(NC(=O)C2CCCN2S(=O)(=O)c2cccc3cccnc23)c1 (stereo unspecified) | -5 | 1.0% | -7% | -22% |
| 4 | Cc1noc(C)c1COc1ccc(C(=O)OCC(=O)OC(C)(C)C)cc1 | -5 | ? | 0% | -3% |
| 5 | CCN1CCN(C(c2ccccc2)c2nnnn2CCc2ccc(OC)c(OC)c2)CC1 (stereo unspecified) | 2 | 4.1% | 2% | -9% |
| 6 | Cc1cc(Br)cc2c(C(=O)NCC3CCCO3)cc(-c3ccccc3)nc12 (stereo unspecified) | / | 5.2% | 32% | -1% |
| 7 | Cc1cc(C)c(OCCn2ccnc2)c(C)c1 | / | -0.2% | 37% | 18% |
| 8 | CN(Cc1cccc(Cl)c1Cl)CC(O)COc1ccccc1 (stereo unspecified) | / | -0.6% | 1% | -10% |
| 9 | CC(C)(C)OC(=O)N1CCCC(C(=O)Nc2ccc(C(=O)N3CCCC3)cc2)C1 (stereo unspecified) | / | 0.8% | 5% | / |
| 10 | c1ccc2c(CSCc3nc4ccccc4[nH]3)cccc2c1 | 3 | -1.3% | -1% | 3% |
| 11 | Cc1nc2ccccc2c2nc(NC(=O)Cc3ccccc3)nn12 | -2 | -0.7% | 0% | -24% |
| 12 | C=CCNC(=O)/C(=C/c1ccccc1OCC)NC(=O)c1ccccc1 | -8 | -0.2% | -2% | -6% |
| 13 | COc1c(Cl)ccc(Cl)c1C(=O)NC(=O)N1CCOCC1 | 2 | -5.6% | 6% | 0% |
| 14 | CCCn1c(=O)c(C(=O)NNC(=O)c2ccc(Cl)cc2Cl)c(O)c2ccccc21 | / | -0.2% | -10% | 1% |
| 15 | COc1ccccc1NC(=O)CN1CCN(CC(=O)Nc2ccccc2F)CC1 | / | 1.2% | 1% | / |
| 16 | COc1ccc(/C=C/C2=CC(C)(C)NC(=S)N2)cc1OC | -6 | -4.1% | 7% | -10% |
| 17 | CC1(C)CC(NC(=O)C(=O)NCCc2ccccc2)CC(C)(C)N1 | 2 | -0.3% | 1% | 5% |
| 18 | O=C(Nc1cccnc1)c1cc(-c2cccs2)on1 | 2 | 2.0% | -9% | 1% |
| 19 | CCOC(=O)N1N=C(C)CC1(O)c1ccc(Cl)cc1 (stereo unspecified) | -4 | 0.8% | -19% | -1% |
| 20 | COCCNC(=O)C1CCC(=O)N(c2ccc(OC)cc2)C1c1ccc(OC)c(OC)c1 (stereo unspecified) | 7 | 2.3% | 17% | 1% |
| 21 | CCOC(=O)c1nnc(-c2ccc(C)cc2)nc1Sc1ccc(Cl)cc1 | 2 | -0.7% | -8% | 1% |
| 22 | CCCNC(=O)C(Cc1ccccc1)NC(=O)c1ccccc1 (stereo unspecified) | / | -0.6% | 0% | / |
| 23 | Cc1cc(=O)[nH]c(N/N=C/c2c(C)nn(-c3ccccc3)c2Cl)n1 | 4 | ? | -3% | 6% |
| 24 | Cc1ccc(CNC(=O)c2ccccc2-n2cnnn2)cc1 | -4 | 0.4% | 0% | -1% |
| 25 | O=C(CN(c1ccccc1)S(=O)(=O)c1ccccc1[N+](=O)[O-])Nc1cccnc1 | / | -0.7% | 0% | 22% |
| 26 | COc1ccc(S(=O)(=O)NCCSCc2ccco2)cc1OC | 11 | -2.2% | 0% | -14% |
| 27 | Cc1ccc(N(CC(=O)Nc2cc(Cl)ccc2Oc2ccccc2)S(C)(=O)=O)cc1C | -1 | 0.9% | -4% | 15% |
| 28 | COc1ccc(C(=O)[C@@H]2CC[C@](C)(C(=O)O)C2(C)C)cc1 | / | ? | 9% | / |
| 29 | CCOc1ccc(N(C(C)C(=O)N/N=C(\C)C(C)(C)C)S(C)(=O)=O)cc1 (stereo unspecified) | 7 | -1.7% | -13% | 1% |
| 30 | CC(=O)Nc1ccc(NC(=O)C(C)OC(=O)CN2C(=O)C3CCCCC3C2=O)cc1 (stereo unspecified) | / | 2.0% | 0% | / |
| 31 | COc1ccc(/C=N\NC(=O)C2COc3ccccc3O2)cc1O (stereo unspecified) | -2 | 0.9% | 1% | 4% |
| 32 | Cc1nc([N+](=O)[O-])cn1CC(=O)c1ccccc1 | 6 | 1.7% | -8% | 0% |
| 33 | CC1Cc2ccccc2N1C(=O)CN(C)S(=O)(=O)c1cccc2cccnc12 (stereo unspecified) | 2 | -1.3% | 18% | -6% |
| 34 | CC(NC(=O)CSc1nc2ccccc2n1C)c1ccccc1 (stereo unspecified) | / | 3.4% | 1% | -2% |
| 35 | CN1CCN(C(=O)C2=C[C@H](C3CC3)C[C@H](OCc3ccc(CO)cc3)O2)CC1 | / | ? | -16% | / |
| 36 | O=C(NC(=S)Nc1ccc(Br)c(Cl)c1)C1CC1 | / | 4.6% | -1% | -13% |
| 37 | COc1ccc(/C(O)=C2/C(=O)C(=O)N(CCN(C)C)C2c2cccnc2)cc1C (stereo unspecified) | 3 | 0.3% | 1% | 1% |
| 38 | COc1cc(C(=O)N(CCN(C)C)CC2CCCN(Cc3ccccc3F)C2)ccc1C (stereo unspecified) | / | -0.1% | -9% | 7% |
| 39 | Cc1cc(OC(=O)c2cccc(F)c2)c([N+](=O)[O-])c(=O)[nH]1 | / | 0.3% | -12% | -3% |
| 40 | FC(F)(F)c1cccc(Cc2noc(CN(Cc3ccccn3)CC3CCCO3)n2)c1 (stereo unspecified) | 3 | -2.0% | 5% | 5% |
| 41 | COc1cccc(NC(=O)CS(=O)(=O)c2cn(CC(=O)N3CCOCC3)c3ccccc23)c1 | 7 | 0.3% | 19% | 3% |
| 42 | CCOc1ccc2oc(C(=O)OCC(=O)N3C(C)CCCC3C)c(C)c2c1 (stereo unspecified) | / | -0.3% | 25% | / |
| 43 | COc1ccc(-n2c(C)cc(/C=C3\C(=N)N4N=C(CC(=O)N5CCOCC5)SC4=NC3=O)c2C)c(OC)c1 | / | ? | ? | -3% |
| 44 | COCc1nnc(NC(=O)C2CCN(C(=O)c3ccco3)CC2)s1 | / | -2.2% | -2% | 5% |
| 45 | CC(=O)N1CCCC(C(=O)c2ccc(Oc3ccccc3)cc2)C1 (stereo unspecified) | 4 | -1.4% | 3% | -17% |
| 46 | CCOc1ccc(N=C2NC(=O)CS2)cc1 | / | ? | 1% | -6% |
| 47 | COC(=O)CSc1nc(C)cc(C(F)(F)F)c1C#N | -15 | ? | ? | -1% |
| 48 | Nc1c(C(=O)NCc2ccc3c(c2)OCO3)c2nc3ccccc3nc2n1CCCN1CCOCC1 | -10 | ? | ? | -6% |
| 49 | COc1cc(OC)cc(OCC(O)Cn2ccnc2C)c1 (stereo unspecified) | -1 | 2.5% | 4% | -3% |
| 50 | CC(=O)c1c(O)cc(=O)oc1-c1ccc(C)cc1 | / | 1.4% | ? | / |
| 51 | CSc1ccc(C(=O)C2CCCN(C(=O)c3cccnc3SC)C2)cc1 (stereo unspecified) | -7 | -0.1% | ? | -2% |
| 52 | CSCCC(NC(=O)COc1ccccc1)C(=O)N1CCN(c2ccccc2O)CC1 (stereo unspecified) | / | 2.3% | 17% | / |
| 53 | Cc1cc(OCCCC(=O)Nc2cc(S(=O)(=O)N3CCOCC3)ccc2N2CCOCC2)ccc1Cl | / | -3.6% | 1% | / |
| 54 | Cn1c(=NC(=O)c2cnccn2)sc2ccccc21 | -3 | 2.7% | -11% | -20% |
| 55 | CCOC(=O)N1CCN(C(=O)CCn2c(=S)[nH]c3cc(OCC)c(OCC)cc3c2=O)CC1 | -4 | / | / | -2% |
| 56 | O=C(CSc1nnc2ccccn12)NCc1ccc2c(c1)OCO2 | 3 | 1.8% | 12% | -3% |
| 57 | NC(=O)CCC(NS(=O)(=O)c1ccc(Cl)cc1)C(=O)NCc1ccccc1Cl (stereo unspecified) | 7 | 5.0% | -21% | -11% |
| 58 | O=C(OCc1c(Cl)nc2sccn12)c1cc2c(s1)CCCC2 | -1 | -2.4% | 9% | -7% |
| 59 | COc1ccc(CCN2C(=S)N(c3ccc(Cl)cc3)C(=O)C2CC(N)=O)cc1OC (stereo unspecified) | -2 | 6.7% | 17% | 10% |
| 60 | COCCn1c(SCC(=O)Nc2ccc(OC)cc2)nnc1-c1ccoc1C | / | ? | -10% | -11% |

The results go on:
Order of values: GLA inh pH 4.5, Rango-impB inh, Rango release inh, miR-21 reporter
#61 O=C(CN1CCN(C(C(=O)Nc2cc(C(F)(F)F)ccc2Cl)c2ccccc2)CC1)NC1CC1 (stereo unspecified)
→ /, 0.6%, -7%, /
#62 CCOc1ccc(N2CC(C(=O)Nc3nnc(C4CCCCC4)s3)CC2=O)cc1 (stereo unspecified)
→ /, -0.2%, -4%, -3%
#63 O=C(Cc1cccc(C(F)(F)F)c1)OCN1C(=O)c2ccccc2C1=O
→ /, 1.6%, -7%, -5%
#64 O=C(N/N=C/c1ccc(Cl)s1)C(O)c1ccccc1 (stereo unspecified)
→ /, 0.4%, 4%, -11%
#65 Cc1ccc(-c2nn(-c3ccccc3)cc2C(=O)NCC(c2cccs2)N2CCOCC2)cc1 (stereo unspecified)
→ /, ?, 8%, /
#66 N#C/C(=C\c1ccc(OC(=O)c2ccccn2)cc1)C(N)=O
→ -4, ?, -10%, -8%
#67 Cc1ccc(C2=NN(S(=O)(=O)c3ccccc3)C(c3ccco3)C2)cc1 (stereo unspecified)
→ /, 2.3%, 14%, /
#68 COC(=O)C(Cc1ccc(O)cc1)NC(=O)CCNC(=O)c1ccco1 (stereo unspecified)
→ /, ?, ?, -2%
#69 O=C(Nc1ccc2c(c1)OCCO2)NC12CC3CC(CC(C3)C1)C2
→ 2, -1.2%, 27%, -43%
#70 COc1cccc(COC(=O)CCNC(=O)c2ccc(Br)cc2)c1OC
→ /, -0.1%, 26%, /
#71 COCCNC(=S)N=Nc1c(O)[nH]c2c(C)cc(C)cc12
→ -8, -1.7%, 7%, 0%
#72 Cc1ccc(CN2[C@@H](c3ccccc3)COCCS2(=O)=O)cc1
→ /, 3.6%, 1%, 1%
#73 Cc1cc(C(=O)CN2C(=O)C(=O)N(Cc3ccccc3)C2=O)c(C)n1-c1ccc2c(c1)OCCO2
→ -1, -1.1%, 20%, -1%
#74 Cc1nnc(N2CCOCC2)c2nn(-c3ccccc3)c(C)c12
→ 0, 3.3%, 13%, -16%
#75 Cc1ccccc1-c1nc(CN2CCCC2c2ccc(F)cc2)c(C)o1 (stereo unspecified)
→ 1, -2.8%, -2%, -2%

Compounds listed so far that have an NH in an aromatic ring:
Order of values: GLA inh pH 4.5, Rango-impB inh, Rango release inh, miR-21 reporter
#10 c1ccc2c(CSCc3nc4ccccc4[nH]3)cccc2c1
→ 3, -1.3%, -1%, 3%
#23 Cc1cc(=O)[nH]c(N/N=C/c2c(C)nn(-c3ccccc3)c2Cl)n1
→ 4, ?, -3%, 6%
#39 Cc1cc(OC(=O)c2cccc(F)c2)c([N+](=O)[O-])c(=O)[nH]1
→ /, 0.3%, -12%, -3%
#55 CCOC(=O)N1CCN(C(=O)CCn2c(=S)[nH]c3cc(OCC)c(OCC)cc3c2=O)CC1
→ -4, /, /, -2%
#71 COCCNC(=S)N=Nc1c(O)[nH]c2c(C)cc(C)cc12
→ -8, -1.7%, 7%, 0%

Continued.
Order of values: GLA inh pH 4.5, Rango-impB inh, Rango release inh, miR-21 reporter
#76 O=C(Nc1cccc(S(=O)(=O)N2CCOCC2)c1)C1CCN(S(=O)(=O)c2ccccc2)CC1
→ /, 1.7%, 11%, /
#77 CN(C)CCCN(Cc1ccccc1)C(=S)Nc1ccc(F)c(Cl)c1
→ -13, 0.2%, -3%, -3%
#78 O=C(Nc1nc2ccsc2c(=O)s1)c1ccc(Cl)cc1
→ -4, -0.3%, 1%, -52%
#79 Brc1ccc(CNc2ccc3ncccc3c2)cc1
→ /, 3.8%, -16%, -10%
#80 COc1ccc(S(=O)(=O)N2CCOCC2)cc1C(=O)Nc1ccon1
→ 5, -2.3%, -3%, -2%
#81 CCOC(=O)N1CCC(c2nc(C)sc2C(=O)O)CC1
→ 0, 0.0%, -8%, 2%
#82 Cc1ccc(NCc2nnc(SCC(N)=O)n2CCc2ccccc2)cc1
→ -3, /, /, -11%

Only part of the results is shown. The share of hits here may be higher or lower than overall.
